# INS promoter inh – TRM-6 insulin promoter activity inhibition; TRM-6 cells (human fetal islet line), insulin promoter-eGFP reporter, imaging; reporter expression induced with tamoxifen; inhibition, % at 2 µM; 0.9% of 130,000 active; AID 1273;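 active means inhibition above the mean plus 3 SD, with well images judged a real hit on visual review, cut at about 60% in these data, passing the limit was not always enough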
# GALR2 ag – activates the human galanin receptor 2; O43603; GALR2-expressing cells, agonist activation read-out; activation, %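 (tested at 5 µM)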; 0.48% of 140,000 active;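 active means above mean plus 3 SD of all compounds, about 5% in these data, not always enough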;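 further: 0% = vehicle buffer wells and 100% = reference agonist at full effect; tested in CHO reporter cells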
# Target sequence (O43603 whole entry, looked up): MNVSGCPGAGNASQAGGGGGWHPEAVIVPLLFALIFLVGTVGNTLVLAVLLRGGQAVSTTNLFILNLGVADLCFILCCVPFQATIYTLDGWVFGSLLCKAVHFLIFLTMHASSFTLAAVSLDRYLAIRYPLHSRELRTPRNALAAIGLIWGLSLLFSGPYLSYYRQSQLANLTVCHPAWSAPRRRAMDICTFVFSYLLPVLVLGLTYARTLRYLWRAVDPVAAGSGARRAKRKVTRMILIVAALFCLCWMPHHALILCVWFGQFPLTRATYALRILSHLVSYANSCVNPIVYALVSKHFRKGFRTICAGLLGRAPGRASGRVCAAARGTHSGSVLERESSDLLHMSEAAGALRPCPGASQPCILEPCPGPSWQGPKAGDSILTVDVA
# HSV augment – HSV replication enhancement | HSV replication augmentation in cells, fold increase | AID 1956 | maximum fold increase | 0.005% of 220,000 active;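 active means peak rise of 1.5-fold or more in the series; tested in PC3 cells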;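 further: first round at 10 µM; read as green reporter fluorescence; hits show the peak of a series up to 25 µM; 1 = signal of infected wells without compound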
# RGS16-Gao – modulates binding between human RGS16 and Galphao. O15492+P09471. bead-based flow cytometry RGS16-Galphao binding, fluorescence; actives lie on both sides. 0.38% of 220,000 active. AID 1441. binding response (% of control), % at 10 µM;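 active means below 25% or above 175%, edge rows of some plates excepted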;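 further: Galphao activated by GDP with aluminum fluoride before binding; 100% = wells without compound and 0% = beads without RGS; some results beyond the cut were filed as inactive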
# Target sequence (O15492 whole entry, looked up): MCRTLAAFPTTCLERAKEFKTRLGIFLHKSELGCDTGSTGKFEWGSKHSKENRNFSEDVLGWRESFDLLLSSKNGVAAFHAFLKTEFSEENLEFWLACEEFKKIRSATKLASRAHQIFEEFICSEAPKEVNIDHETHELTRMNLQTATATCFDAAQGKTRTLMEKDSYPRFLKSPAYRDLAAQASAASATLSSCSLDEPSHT
# Target sequence (P09471 whole entry, looked up): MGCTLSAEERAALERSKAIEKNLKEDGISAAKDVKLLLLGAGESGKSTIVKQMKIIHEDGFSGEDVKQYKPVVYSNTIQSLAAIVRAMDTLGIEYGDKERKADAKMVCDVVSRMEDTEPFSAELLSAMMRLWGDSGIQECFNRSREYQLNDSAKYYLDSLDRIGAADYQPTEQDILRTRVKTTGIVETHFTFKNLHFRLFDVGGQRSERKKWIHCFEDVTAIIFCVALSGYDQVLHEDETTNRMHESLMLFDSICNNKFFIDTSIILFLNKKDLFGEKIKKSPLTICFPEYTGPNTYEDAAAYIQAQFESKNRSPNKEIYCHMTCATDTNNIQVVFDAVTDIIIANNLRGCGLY
# PKD1 kinase inh – blocks activity of human protein kinase D1 | PKD1 kinase fluorescence polarization assay | inhibition, %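 (about 10 µM by stock and volumes)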 | 0.056% of 200,000 active | AID 797;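 active means inhibition of 50% or more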;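 further: controls were vehicle for no effect and a reference inhibitor for full effect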
# INS promoter inh cell count – recorded beside INS promoter inh, whose call it bears; normalized cell count, %; measured here: cell count, toxicity; reference of the scale not given here;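 cells exposed to compound for 48 h; stained nuclei by imaging scaled within each plate; lower means fewer cells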
# HSV augment primary fold – second read-out of HSV augment, no call of its own (marks repeat the call); fold increase; compound at 10 µM; measured here: primary screen fold increase 10 uM; tested in PC3 cells;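 GFP signal in the first replicate; 1 = infected wells without compound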
# Numbers without * were called inactive; i = inactive; . = no result given.
# Each structure is followed by: INS promoter inh	INS promoter inh cell count	GALR2 ag	HSV augment	HSV augment primary fold	RGS16-Gao	PKD1 kinase inh
O=C(C1=C[C@@H](c2ccc(Br)cc2)C[C@@H](OCc2ccc(CO)cc2)O1)N1CCOCC1
 : .	.	.	i	0.86	99	-2
CC(C)OC(=O)Cn1nnc2c(cnn2-c2ccccc2)c1=O
 : 25	78	-2.8	i	0.97	101	-1
COCCNc1ccc([N+](=O)[O-])cc1C(=O)Nc1cccc(C)n1
 : .	.	.	i	1.1	102	4
Cc1ccc(NC(=O)CCC(=O)N/N=C/c2ccc([N+](=O)[O-])o2)cc1C
 : .	.	.	i	0.97	70	.
CCC(CC)NC(=O)c1cccc(Br)c1
 : 88*	74*	.	i	0.91	98	-5
C#CCSc1nnc(-c2sc(-c3ccccc3)nc2C)n1C
 : -107	89	-2.3	i	0.8	104	2
CCC(SC1=NCCS1)C(=O)Nc1nnc(-c2ccccc2OC)s1 (stereo unspecified)
 : .	.	-2.0	i	0.75	81	4
CCOC(=O)c1c(N2CCCCC2)c2ccccc2[nH]c1=O
 : 66*	17*	-2.7	i	0.9	97	4
CCN(CC)c1ccc(C=Nc2cc(C)ccc2C)c(O)c1
 : -43	86	-0.9	i	1	103	-9
CCOc1cccc(=O)c2c(C)n(Cc3ccco3)c(C)c12
 : .	.	0.3	i	0.98	22	-1
O=C(c1nc2ccccn2c1CN1CCCC(c2nc3ccccc3o2)C1)N1CCCC1 (stereo unspecified)
 : -5	76	.	i	1	152	-3
Cc1cc(C)cc(Oc2ccccc2CO)c1
 : .	.	.	i	0.94	104	1
C=C(C)C1CC=C(C)/C(=N/NC(=S)Nc2ccccc2)C1 (stereo unspecified)
 : 8	119	-1.2	i	0.98	105	2
CN(C)c1ccc(P(=O)(OC2CCCCC2)C(O)c2ccccn2)cc1 (stereo unspecified)
 : .	.	.	i	1.1	106	.
S=c1nc2ccccc2c2nc(-c3ccccc3)[nH]n12
 : 50	196	-0.4	.	.	110	-2
O=C(O)C1Cc2[nH]cnc2C(c2ccccc2O)N1 (stereo unspecified)
 : 12	107	0.3	i	1	102	7
O=C(c1ccc2ccccc2n1)N1CCN(c2ccccc2)CC1
 : -207	60	-2.1	i	0.93	104	-8
C=CCOc1ccc(/C=N/n2cncn2)cc1OC
 : 71	144	-1.7	i	1	105	-4
O=C1CCCC2=C1C(c1ccc(Br)cc1)c1c([nH]c(=S)[nH]c1=O)N2 (stereo unspecified)
 : 48	36	-1.4	i	0.87	93	-10
Cc1ccc2nc3ccc(N4CCN(C)CC4)nn3c(=O)c2c1
 : .	.	-1.1	.	.	96	-1
CC(=O)Nc1ccc(S(=O)(=O)NCCc2ccccn2)cc1
 : 7	134	.	i	0.83	111	3
O=C(Nc1ccccc1Cl)c1cccs1
 : -45	105	-3.9	i	0.87	93	1
CC(C)Cc1cc(C(=O)NCCN2CCOCC2)no1
 : 0	71	-1.2	i	1.1	80	-13
CC(=O)N(C)c1ccc(NC(=O)Nc2ccc(C)cc2)cc1
 : .	.	.	i	0.91	101	-3
CC(C)(C)C1CCc2c(C(=O)N/N=C/c3cccs3)csc2C1 (stereo unspecified)
 : .	.	-1.6	i	0.58	113	-12
Cc1ccc(S(=O)(=O)N2CCCC2C(=O)Nc2cc(C)on2)cc1 (stereo unspecified)
 : 14	74	-2.4	i	1.1	138	-1
Cc1ccc(-c2nnn(CC(=O)Nc3cccc4cccnc34)n2)o1
 : 15	98	-2.9	i	1	97	2
O=C(c1cc2cc(Br)cc(Br)c2oc1=O)N1CCCC1
 : -15	110	-1.1	i	1	99	6
COc1ccc(NC(=O)OC(CN2CCCCC2)C(F)(F)F)cc1 (stereo unspecified)
 : -76	42	-1.1	i	1	102	-7
Cc1c(-c2ccccc2)[n+](=O)c(-c2ccc(Cl)cc2)c(C)n1[O-]
 : .	.	.	i	0.93	103	-3

# Compounds listed so far containing a thiophene ring, fused or not (2):
# Each structure is followed by: INS promoter inh	INS promoter inh cell count	GALR2 ag	HSV augment	HSV augment primary fold	RGS16-Gao	PKD1 kinase inh
O=C(Nc1ccccc1Cl)c1cccs1
 : -45	105	-3.9	i	0.87	93	1
CC(C)(C)C1CCc2c(C(=O)N/N=C/c3cccs3)csc2C1 (stereo unspecified)
 : .	.	-1.6	i	0.58	113	-12

# Following part:
# Each structure is followed by: INS promoter inh	INS promoter inh cell count	GALR2 ag	HSV augment	HSV augment primary fold	RGS16-Gao	PKD1 kinase inh
Cc1nc2oc(C(=O)c3ccccc3)c(N)c2c2c1COC(C)(C)C2
 : 25	109	-1.4	.	.	104	-3
NC(=O)c1c(/N=C/c2cccnc2)sc2c1CCCC2
 : .	.	.	i	0.94	100	.
O=C(Cn1c(CO)nc2ccccc21)NC1CCCCCC1
 : 45	176	.	i	0.99	109	-5
CCOC(=O)C1CCN(Cc2c(O)ccc3ccccc23)CC1
 : -43	121	-1.9	i	1	106	-7
Cc1ccc(OCC(=O)OC2CCCN(C)C2)cc1 (stereo unspecified)
 : .	.	.	i	1	107	-4
CCC(c1nnnn1CCOC)N(Cc1ccc(C)cc1)Cc1cc2cc(OC)ccc2[nH]c1=O (stereo unspecified)
 : -36	70	-0.3	i	1	103	-2
COc1ccc(-c2cn[nH]c2-c2ccc(OCc3ccc(F)cc3)cc2O)cc1OC
 : .	.	.	i	0.86	107	.
CN(C)S(=O)(=O)N1CCN(c2cccc(Cl)c2)CC1
 : 5	150	-1.0	i	0.82	126	0
Cc1c(Cc2ccccc2)c(=O)n2c([nH]c3ccccc32)c1C#N
 : .	.	.	i	0.93	99	.
CCOCCCn1c(C)nc2c(c1=O)c1nc3ccccc3nc1n2-c1ccc(C)cc1
 : .	.	-2.0	i	1.4	91	-1
Cc1cc(F)ccc1S(=O)(=O)Nc1ncnc2sc3c(c12)CCC3
 : 20	30	.	i	1.1	103	1
CCN(CC)c1ccc(C=C(c2nnnn2-c2ccccc2)c2nnnn2-c2ccccc2)cc1
 : -73	67	-0.8	3.1*	1.8*	87	-6
CCCOc1ccc(N2C(=O)CC(N(Cc3ccco3)C(=O)CC)C2=O)cc1 (stereo unspecified)
 : .	.	.	i	1.2	103	.
CCCCN(C)C(=O)c1nc2ccccn2c1CN1CCN(c2cnccn2)CC1
 : .	.	.	i	1.1	98	5
CC(=O)Nc1cccc(NC(=O)CCc2ccccc2)c1
 : 50	91	-0.7	i	0.78	103	6
CCCn1c(SCC(=O)NC(C)(C)C)nnc1-c1ccco1
 : .	.	.	i	0.99	111	-4
CCCCN1C(=O)CC(Sc2ccccc2C(=O)O)C1=O (stereo unspecified)
 : -9	122	-1.2	i	0.82	98	-10
CC(NC(=O)NCCCC(=O)O)(C(F)(F)F)C(F)(F)F
 : 8	140	-1.6	i	0.95	109	-5
C=CCNC(=O)C(=O)NCCOc1ccccc1Cl
 : -3	136	-1.7	i	0.68	105	-13
Cc1oc(C(C)(C)C)cc1C(=O)NCc1ccc2c(c1)OCO2
 : .	.	.	i	0.96	103	.
COc1cccc(C2C(C#N)=C(N)Oc3c2oc(CO)cc3=O)c1OC (stereo unspecified)
 : .	.	-3.5	i	1.1	105	-21
Cc1ccc(NC2=C(N3CCCCC3)C(=O)c3ccccc3C2=O)cc1
 : -10	82	-2.3	i	0.52	61	6
COc1ccc(CN(C(=S)Nc2ccccc2)C2CC(=O)N(c3ccccc3)C2=O)cc1 (stereo unspecified)
 : .	.	-1.2	i	1	116	-2
O=C(NCCc1ccccc1)C1CCN(S(=O)(=O)N2CCCCCC2)CC1
 : .	.	.	i	1	70	4
N#CCCn1c(C(C#N)(CCC#N)CCC#N)nc2ccccc21
 : .	.	-1.3	i	1	101	-2
COc1cc(OC)cc(C(=O)NCC(=O)N2CCC(C)CC2)c1
 : -44	49	-1.5	i	1.1	115	3
OC(c1ccccc1)c1nccc2ccccc12 (stereo unspecified)
 : 50	135	.	i	0.97	107	-5
COc1ccc(Oc2nnc(C)c3ccccc23)cc1
 : -17	182	-0.6	i	0.89	103	-8
Cc1ccc(C(=O)O/N=C(\N)c2ccc(Br)cc2)cc1C
 : 3	40	-1.0	i	0.93	104	-5
CCOC(=O)c1c(C)nc(C)c(C(=O)OCC)c1-c1ccc(Br)cc1
 : .	.	-0.8	i	0.98	100	10

# Each structure is followed by: INS promoter inh	INS promoter inh cell count	GALR2 ag	HSV augment	HSV augment primary fold	RGS16-Gao	PKD1 kinase inh
CCN(CC)C(=O)c1ccc(C(=O)c2ccccc2)cc1
 : -28	109	-2.2	i	0.86	97	-8
Cc1onc(-c2ccccc2)c1C(=O)OCC(=O)c1ccccc1
 : .	.	-0.8	i	0.85	82	-9
Cc1c(NC(=O)c2ccc(CN3CCc4ccccc4C3)cc2)c(=O)n(-c2ccccc2)n1C
 : -36	76	0.0	i	1.1	100	1
CC(=O)C1=C(C)NC(=O)NC1/C=C/c1ccccc1 (stereo unspecified)
 : .	.	.	i	0.98	100	-2
CC(C)CC(C(=O)Nc1oc(-c2ccco2)c(-c2ccco2)c1C#N)N1C(=O)c2ccccc2C1=O (stereo unspecified)
 : -81	124	-1.9	i	1	92	7
O=C(O)c1ccc(N2C(=O)CC(SC(=NCc3ccc4c(c3)OCO4)Nc3ccc(F)cc3)C2=O)cc1 (stereo unspecified)
 : -143	48	.	i	1	114	1
CCn1c(SCC(=O)Nc2ccccc2C(=O)OC)nnc1-c1ccoc1C
 : .	.	0.6	i	0.96	108	6
CCNC(=O)Nc1ccc(-n2nc(C)c(C(=O)OCC)c2C)nc1
 : 61	126	.	i	0.95	111	4
O=C(Nc1ccc(Cl)cc1)N1CCCC1
 : 12	132	-1.7	i	0.93	96	-3
COC(=O)c1c(NC(=O)Cc2cccs2)sc2c1CCC(C)C2 (stereo unspecified)
 : 36	70	0.6	i	0.91	98	-12
Cc1ccc(-c2[nH]c(-c3ccc(Cl)cc3)nc2SCC(=O)NCC2CCCO2)cc1 (stereo unspecified)
 : 41	90	-1.6	i	0.86	126	1
COc1ccc(OC)c(S(=O)(=O)NCCc2ccccc2)c1
 : .	.	-2.6	i	0.73	105	2
COc1ccccc1NC(=O)CNC(=O)c1ccc([N+](=O)[O-])cc1
 : .	.	.	i	0.98	92	-1
CCn1c(SC(C)C(=O)OC)nnc1-c1c[nH]c2ccccc12 (stereo unspecified)
 : .	.	-1.4	i	0.93	94	2
COc1cccc(CNC(=O)CCC2CCCN(C(=O)Cc3ccccc3F)C2)c1 (stereo unspecified)
 : .	.	.	i	0.96	104	-1
Cc1ccc(C(c2c(O)nc3n(c2=O)CCS3)c2c(O)nc3n(c2=O)CCS3)cc1
 : -9	88	-0.2	i	0.96	102	-11
Cc1ccc(NS(=O)(=O)c2ccc(C)c(NC(=O)COc3ccc4ccccc4c3)c2)c(C)c1
 : -6	96	.	i	0.97	104	1
CCCn1c(CNc2ccc(Br)cc2)nc2ccccc21
 : .	.	-0.6	i	0.97	103	-3
Cc1nc(N)sc1C(=O)Nc1ccccc1
 : -34	54	-0.6	i	1	91	-4
Cn1c(=O)n(C)c2cc(/C=N/NC(=S)NCc3ccccc3)ccc21
 : -38	122	-0.1	i	0.94	109	0
COc1ccc(/C=N/NC(=O)c2cc(C)oc2C)cc1OC
 : .	.	.	i	0.96	101	.
CC(C)(C)n1nnnc1C(c1ccccn1)N1CCN(C(c2ccccc2)c2ccccc2)CC1 (stereo unspecified)
 : 33	95	.	i	0.94	110	-3
O=C(Nc1ccccc1)/C(=C\c1ccc2c(c1)OCO2)NC(=O)c1ccco1
 : .	.	-0.2	i	0.57	114	-7
Cc1ccc2[nH]c(=S)cc(C)c2c1
 : .	.	-1.0	i	0.88	95	-7
O=C(NC1c2ccccc2-c2ccccc21)c1ccccc1
 : 44	150	0.2	i	1	111	-5
C[C@H]1C(=O)N(C)CCN1Cc1cn(C)nc1-c1ccc(Oc2ccccc2)cc1
 : .	.	.	i	0.99	104	-3
CCOC(=O)c1noc(C)c1C(=O)Nc1nccs1
 : .	.	.	i	1	100	1
CC(=O)Oc1ccccc1-c1nc(C)nc(N(C)C(C)=O)n1
 : 16	119	-2.6	i	0.84	103	2
Cc1ccc(-n2c(=O)c3ccccc3n(CC(=O)NCc3ccco3)c2=O)cc1
 : 73*	91*	.	i	1	100	2
Cc1oc2cc(O)ccc2c(=O)c1Oc1ccccc1Br
 : .	.	-1.1	i	0.68	96	-2

# A stretch of the results above, for reference:
# Each structure is followed by: INS promoter inh	INS promoter inh cell count	GALR2 ag	HSV augment	HSV augment primary fold	RGS16-Gao	PKD1 kinase inh
CCN(CC)C(=O)c1ccc(C(=O)c2ccccc2)cc1
 : -28	109	-2.2	i	0.86	97	-8
Cc1onc(-c2ccccc2)c1C(=O)OCC(=O)c1ccccc1
 : .	.	-0.8	i	0.85	82	-9

# Screens: PubChem BioAssay, several laboratories
